Screens from PubChem BioAssay.
Sa RN4220 lethal: growth inhibition of S. aureus RN4220, primary screen, OD600; AID 1259311, 2017; inhibition, % (test concentration not listed); 16 h; hit rate 0.33% among 330,000;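 active = z-score of -3 or lower and OD600 up to 0.18 on both plates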;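 also: plate controls were untreated cells for no effect and reference antibiotic for full effect; stock transfer was 100 nL into about 80 µL; one replicate is shown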
Bead autofluor: compound fluorescence in toxin protease inhibitor counterscreen | fluorescence intensity (concentration not given with the values) | hit rate 3.1% among 360,000 | compound autofluorescence counterscreen, microsphere flow cytometry; active compounds read high | AID 624483;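 active = at least 3 SD above the mean of all compounds, about 16000 in these data; inconclusive = too few beads counted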;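 also: 100 nL of 1 mM stock went into each well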
Sa ugtP lethal: growth inhibition of ugtP-null S. aureus, primary screen, RN4220 ugtP deletion, OD600 | 16 h; some inactives read as strong as hits | growth inhibition, % (concentration not given with the values) | hit rate 0.54% among 330,000;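 active = z-score under -3 and OD600 up to 0.15 on both plates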;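 also: plate controls were untreated wells for no effect and antibiotic for full effect; wells of about 80 µL received 100 nL stock; the first replicate is given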
PrP UTR inh: inhibition of PrP 5' UTR reporter expression; hit rate 0.35% among 340,000; inhibition, % (test concentration not listed); cell-based PrP 5' UTR mRNA reporter, plate reader;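 active = every replicate at 50% or more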;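 also: 0 = median of the neutral control wells; tested in H4 reporter cells; numbers are from one replicate; inactives centre near -14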
BJeLR viability: MLPCN primary cell-based screen for lethality selective to Ras in HRASV12 cells | AID 1554, 2009 | inhibition, % (no concentration beside the values) | hit rate 0.17% among 300,000 | BJeLR (HRASV12) viability, CellTiter-Glo ATP luminescence, 48 h; reference of the scale not given here;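 active = replicate mean above 50%; inconclusive = above 50% but judged a plate artefact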;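 also: 50 nL library stock added to about 25 µL; numbers are from one replicate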
Mtb hypoxia inh: PubChem AID 1159583; M. tuberculosis hypoxia-regulated fluorescent reporter, fluorescence; fluorescence inhibition, % (no concentration beside the values); hit rate 0.1% among 300,000;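 active = 35 to 45% if threefold the growth effect, above 45% if 1.5-fold the growth effect; inactive = the rest, general growth blockers included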;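 also: wells of about 50 µL received 100 nL stock; 0% = vehicle wells and 100% = reference inhibitor wells; whole bacteria with a GFP reporter of the hypoxia response; strong numbers were not always called active; many hits fall short of the cut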
Mtb hypoxia inh growth: further read-out of Mtb hypoxia inh, marked with its call; growth inhibition, %; measured here: M. tuberculosis growth (absorbance);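 0% = vehicle and 100% = reference antibiotic; read after six days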
* = called active by the depositor; ? = inconclusive; . = no result given; & = joins results of further samples.

The opening 16 compounds, ahead of the listing:
SMILES	Sa RN4220 lethal	Bead autofluor	Sa ugtP lethal	PrP UTR inh	BJeLR viability	Mtb hypoxia inh	Mtb hypoxia inh growth
NC(=O)CC(NC(=O)Cc1ccc(Br)cc1)c1ccc(N2CCc3ccccc3C2)c([N+](=O)[O-])c1 (stereo not given)	2.1	4053	15	-36	-2	2	2
COC(C[C@H]1O[C@H]1[C@@H](O)COCc1ccccc1)OC	.	3606	.	-12	11	.	.
Cc1cc(Cl)ccc1OCC(=O)NNC(=O)c1cnccn1	6.8	4634	10	-7	1	3	8
Cc1ccccc1C(N)=O	2.4	4249	5	2	.	-9	7
Cc1ccc(CN2CCNC(=O)C2CC(=O)NCc2csc(C(C)C)n2)cc1 (stereo not given)	-1.2	4158	-5	-9	-3	1	4
Fc1cccc(NC(=S)NCC(c2cccnc2)N2CCOCC2)c1 (stereo not given)	4.8	2106	5	-11	-4	-1	6
CCN1CC(CNCc2cn(-c3ccc(OC)cc3)nc2-c2ccccc2Cl)CC1=O (stereo not given)	-0.4	4417	1	-16	0	-1	5
CC(=O)c1ccc(N2CCN(C(=O)c3ccc4ccccc4n3)CC2)cc1	-0.6	3465	2	-40	3	-3	12
Cc1ccc(NC(=O)CCc2nc3ccccc3c(=O)[nH]2)cc1S(=O)(=O)N1CCOCC1	-2.4	?	-5	-13	-2	-10	-1
O=C(O)c1cc(NN=Cc2cccnc2)ccc1Cl	1.2	.	13	.	.	4	-8
CN(C)c1nc(SCc2ccc(Cl)cc2)nc2c1CCCC2	-2.7	3403	-15	-9	-3	19	13
COc1cccc(/C=N/Nc2c(Cl)cncc2Cl)c1O	.	4115	.	-26	2	.	.
CCCn1cnc2c(SCc3ccccc3)nc(N)nc21	1.5	4413	-1	-27	.	19	11
COc1ccc2c(c1)CC1(CN2C)C(=O)NC(=O)N(c2ccc(C)cc2)C1=O (stereo not given)	2.5	4274	0	-16	-3	.	.
c1ccc(Nc2nc(-c3ccncc3)cs2)cc1	-7.6	2434	-9	-72	10	2	-1
Cc1cccc(-n2c3nc(=O)[nH]c(=O)c-3cc3c(C)nn(-c4ccccc4)c32)c1C	2.5	2270	-4	-14	-1	-9	5

The whole of this part, from the start:
SMILES	Sa RN4220 lethal	Bead autofluor	Sa ugtP lethal	PrP UTR inh	BJeLR viability	Mtb hypoxia inh	Mtb hypoxia inh growth
NC(=O)CC(NC(=O)Cc1ccc(Br)cc1)c1ccc(N2CCc3ccccc3C2)c([N+](=O)[O-])c1 (stereo not given)	2.1	4053	15	-36	-2	2	2
COC(C[C@H]1O[C@H]1[C@@H](O)COCc1ccccc1)OC	.	3606	.	-12	11	.	.
Cc1cc(Cl)ccc1OCC(=O)NNC(=O)c1cnccn1	6.8	4634	10	-7	1	3	8
Cc1ccccc1C(N)=O	2.4	4249	5	2	.	-9	7
Cc1ccc(CN2CCNC(=O)C2CC(=O)NCc2csc(C(C)C)n2)cc1 (stereo not given)	-1.2	4158	-5	-9	-3	1	4
Fc1cccc(NC(=S)NCC(c2cccnc2)N2CCOCC2)c1 (stereo not given)	4.8	2106	5	-11	-4	-1	6
CCN1CC(CNCc2cn(-c3ccc(OC)cc3)nc2-c2ccccc2Cl)CC1=O (stereo not given)	-0.4	4417	1	-16	0	-1	5
CC(=O)c1ccc(N2CCN(C(=O)c3ccc4ccccc4n3)CC2)cc1	-0.6	3465	2	-40	3	-3	12
Cc1ccc(NC(=O)CCc2nc3ccccc3c(=O)[nH]2)cc1S(=O)(=O)N1CCOCC1	-2.4	?	-5	-13	-2	-10	-1
O=C(O)c1cc(NN=Cc2cccnc2)ccc1Cl	1.2	.	13	.	.	4	-8
CN(C)c1nc(SCc2ccc(Cl)cc2)nc2c1CCCC2	-2.7	3403	-15	-9	-3	19	13
COc1cccc(/C=N/Nc2c(Cl)cncc2Cl)c1O	.	4115	.	-26	2	.	.
CCCn1cnc2c(SCc3ccccc3)nc(N)nc21	1.5	4413	-1	-27	.	19	11
COc1ccc2c(c1)CC1(CN2C)C(=O)NC(=O)N(c2ccc(C)cc2)C1=O (stereo not given)	2.5	4274	0	-16	-3	.	.
c1ccc(Nc2nc(-c3ccncc3)cs2)cc1	-7.6	2434	-9	-72	10	2	-1
Cc1cccc(-n2c3nc(=O)[nH]c(=O)c-3cc3c(C)nn(-c4ccccc4)c32)c1C	2.5	2270	-4	-14	-1	-9	5
COc1ccc2nc(NC(=O)CSCC(=O)Nc3cc(C)on3)sc2c1	3.1	?	6	-31	-1	6	5
O=S(=O)(N=S(N1CCCCC1)N1CCCCC1)c1ccccc1	9.2	19826*	-1	-25	.	4	13
CC(=O)C(C(C)=O)C(c1ccccc1)c1nc2ccccc2[nH]c1=O (stereo not given)	2.7	3390	-1	-14	1	2	10
CCOC(=O)C1=C(COC(=O)Cc2ccc(OC)c(OC)c2)NC(=O)NC1C (stereo not given)	1.5	8025	3	-24	.	8	6
C(=N/N1CCN(c2ccccc2)CC1)/c1cccs1	.	23132*	.	-38	-3	.	.
CC(=O)NC(C)c1nc2ccccc2n1CC(=O)NC(C)CCc1ccccc1 (stereo not given)	4.8	5145	1	-14	-12	10	6
CCn1c(C)nc2cc(C(=O)NNC(=O)[C@@H](NC(=O)c3cc(OC)cc(OC)c3)C(C)C)ccc21	0.7	3816	-1	-11	.	2	-4
CSc1ccc(C=NNC(=O)c2ccc(O)cc2)cc1	-6.3	.	-8	.	.	6	-2
Cc1ccc(OCc2nnc(SCC(=O)Nc3sc(C)c(C)c3C#N)n2C)cc1	4.3	6538	4	-28	2	0	1
O=C(NCc1cccs1)C1CC(=O)N(Cc2ccccc2)C1 (stereo not given)	-6.8	3123	-3	3	.	1	-15
CNS(=O)(=O)c1cccc(C(=O)OC2CCOC2=O)c1 (stereo not given)	1.7	5889	2	-14	-2	-9	-1
CN(C)CCC(O)c1ccccc1 (stereo not given)	3.3	3801	6	-34	-3	7	-4
COc1ccccc1NC(=O)CCC(=O)NN=C(C)c1ccc(C)cc1	2.9	.	-1	.	.	1	2
O=C(COc1ccc2c(-c3ccccc3)cc(=O)oc2c1)NCC(O)c1ccccc1 (stereo not given)	-4.9	5581	-6	-3	9	.	.
Cc1nc2ccccc2c(-c2ccccc2)c1C(=O)c1ccccc1	-3.8	.	36	3	2	7	12
CN1/C(=C\C(=O)c2cccc(S(=O)(=O)N3CCCCC3)c2)C(C)(C)c2ccccc21	.	2655	.	-9	5	.	.
O=C1CSC(=NN=Cc2ccccc2Cl)N1CC1CC1	-0.3	.	-6	.	.	0	-7
CCc1ccc(N(CC)c2ncnc3nc[nH]c23)cc1	8.6	5907	-12	13	5	-5	3
COc1ccc(CCc2ccc3cc(OC)ccc3n2)cc1	5.1	2983	24	-47	.	8	2
CC1=C(C(=O)OCc2ccccc2)C(c2ccc3c(c2)OCO3)NC(=O)N1CCCC(=O)O (stereo not given)	-1.0	2980	-6	2	-8	-2	5
CCOc1ccc(C(=O)NCC(c2cccs2)N(C)C)cc1 (stereo not given)	4.1	2520	15	-12	-3	-7	0
O=C(NNC1=Nc2cccc3cccc1c23)c1ccccc1Br	-0.9	2424	-18	-18	-1	12	8
N#CC(C#N)=C1NC(N)=C(C#N)C(c2ccccc2)=C1C#N	.	4331	.	-20	-4	.	.
O=C(NCCCN1CCCC1)c1ccc(CS(=O)(=O)c2c(Cl)cccc2Cl)o1	1.0	4879	7	-9	9	9	0
Cc1cc(-c2ccccc2)c2c3c(cn2n1)c(=O)n(C)c(=O)n3C	0.0	3968	-5	-11	0	2	1
Cc1cn(-c2cc(C(=O)Nc3ccc(C)c(NC(=O)N4CCNC4=O)c3)cc(C(F)(F)F)c2)cn1	-3.9	3923&3513	-17	4	-5	0	-4
CCOC(=O)c1sc(NC(=O)CSC(=S)N2CCOCC2)nc1C	7.2	4456	12	-20	-6	2	9
Cc1nc2ccccn2c1C(=O)NN=Cc1ccc(CNC(=O)C(=O)Nc2ccccc2)o1	1.8	.	-3	.	.	10	8
CC(=O)c1c(C)[nH]c(=S)c(C#N)c1-c1ccc(F)cc1	3.8	4682	8	-19	-2	12	2
Cc1cc(OC(=O)c2ccc(OC(C)C)cc2)c([N+](=O)[O-])c(=O)[nH]1	2.1	5930	-4	-19	-4	-6	1
C/C(=N\NC(=O)c1ccco1)c1ccc(C(=O)O)s1	.	6041	.	-28	-1	.	.
COc1ccc(NC(=O)CCC(=O)N/N=C/c2ccc([N+](=O)[O-])s2)cc1	.	9650	.	-11	-3	.	.
O=C(Nc1ccnn1C1CCN(Cc2ccc(CO)o2)CC1)c1ccccc1	-1.7	4044	-5	-5	2	-2	4
COc1cc(C2C(C#N)=C(C)NC3=C2C(=O)CC(C)(C)C3)ccc1O (stereo not given)	7.4	2448	-3	-8	-2	8	7

Further results follow.
SMILES	Sa RN4220 lethal	Bead autofluor	Sa ugtP lethal	PrP UTR inh	BJeLR viability	Mtb hypoxia inh	Mtb hypoxia inh growth
COc1cccc(C(=O)Nc2nnc(C3CCCO3)s2)c1 (stereo not given)	9.1	2534	5	-61	8	13	6
CCOc1cc(C(=O)CCC(=O)OCC(=O)NC(=O)NCC(C)C)ccc1O	1.4	4581	6	-17	15	9	-3
Cc1nn(C)cc1/C=C1/CC2C3CC=C4CC(O)CCC4(C)C3CCC2(C)C1=O (stereo not given)	3.9	4254	-7	-4	-18	4	7
CC(=O)N1CCC2(CC1)NC(=O)N(c1ccccc1)N2	0.7	4638	0	-4	9	16	6
Cc1ccc(-n2c(N)cc(=O)nc2SCC(=O)NC2CCCCC2)cc1C	2.1	4640	8	-7	6	0	-1
O=[N+]([O-])c1cc(/C=N/Nc2nc(N3CCOCC3)nc(N3CCOCC3)n2)ccc1Cl	.	2123	.	-40	2	.	.
Cc1ccc(S(=O)(=O)N2CCCCC2)cc1NC(=O)c1ccc2c(=O)n3c(nc2c1)CCCCC3	2.1	.	-2	.	9	-2	2
S=C(NCc1ccccc1)Nc1cccc2cnccc12	3.7	5252	2	-17	1	-6	-2
CCCS(=O)(=O)N1CCN(C2Cc3ccccc3C2)CC1	2.8	5742	8	-16	6	-2	7
Cc1ccc(/C=N\NC(=O)c2cncc(Br)c2)o1	.	2514	.	-24	-23	.	.
Cc1ccccc1OCC(O)CN (stereo not given)	1.0	3545	0	-4	10	6	1
S=c1nc[nH]c2c1sc1nc(N3CCOCC3)c3c(c12)CCCC3	-2.1	5367	3	-10	5	6	4
CN(CCOc1ccccc1)CCOc1ccccc1	2.5	6483	12	-2	-2	8	7
CCCOC(=O)Cn1c(=O)c2cc3c(=O)n(CC(=O)OCCC)c(=O)c3cc2c1=O	-15	2938	-5	-15	-2	5	5
CCOC(=O)C1CCCN(C(=O)c2cn(C)c3ccc(S(=O)(=O)N4CCCC4)cc3c2=O)C1 (stereo not given)	-0.1	21667*	-2	-33	.	6	2
COc1ccc(C=C(CC(=O)O)c2nc3ccccc3o2)cc1	3.3	.	-7	.	.	-1	12
O=C(NCCC1=CCCCC1)c1cnsn1	2.1	4381	3	-39	1	.	.
COc1cccc(/C=C/C(=O)OCCN2C(=O)c3ccccc3C2=O)c1	4.4	3834	0	-5	9	-9	6
CCOC(=O)CN(Cc1sccc1C)C(=O)Nc1ccc(OCC)cc1	3.1	2578	1	-31	3	9	1
COc1ccc(S(=O)(=O)N2CCOCC2)cc1NC(=O)C1CC1	5.0	3980	10	-20	.	9	-1
Cc1ccc(S(=O)(=O)Nc2ccc(-c3csc(-c4ccccc4)n3)cc2)cc1	-10	7429	-13	-3	-12	-4	-4
C#CCSc1nnnn1-c1ccc(Br)c(C)c1	.	3514	.	-22	-13	.	.
N#Cc1ccc(C(=O)OCC(=O)Nc2ccc(S(N)(=O)=O)cc2)cc1	5.7	.	0	5	-4	-12	6
Cc1ccc(S(=O)(=O)NCCC(=O)Nc2nnc(C)s2)cc1	1.7	2665	-1	-5	-1	.	.
COc1ccc(CCN2C(=NC(=O)C(C)C)SC3CS(=O)(=O)CC32)cc1OC (stereo not given)	4.6	4285	8	-6	-6	9	8
CCc1ccc(C(=O)COC(=O)c2cncc(Br)c2)cc1	6.6	4258	2	-17	9	2	-3
CC(C)CN(C(=O)COC(=O)CCc1c[nH]c2ccccc12)c1c(N)n(Cc2ccccc2)c(=O)[nH]c1=O	0.8	?	11	0	-2	0	-4
